# Source: PubChem
# HIV TAR-Tat: HIV-1 TAR-Tat binding disruption | 100,000 compounds, 0.6% hits | HIV-1 TAR RNA, Tat peptide displacement FRET; hits give high values | z-score (concentration not given with the values) | AID 1259389;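 note: score is relative to mean and SD of negative controls; some compounds called inactive have numbers as strong as hits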
# CDC25B-CDK2 inh: human CDC25B-CDK2/CyclinA binding inhibition; P30305+P24941; HTRF CDC25B-CDK2/CyclinA binding, anti-His/anti-Flag; hits give high values; z-score (concentration not given with the values); 94,000 compounds, 0.72% hits; AID 1259370;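 note: score is relative to mean and SD of negative controls; strong numbers were not always called active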
# * = called active by the depositor; / = not tested or not shown.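 Rule for the calls: active = z-score from 3 up in half or more of its runs; inactive = the rest.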
# Sequence of screens: HIV TAR-Tat, CDC25B-CDK2 inh
> CN1c2ccccc2-c2nc(SCC(=O)Nc3ccc(Cl)cc3)ncc2S1(=O)=O
    1.32, /
> Cc1cccc(NC(c2ccccc2F)c2ccc3cccnc3c2O)n1 (configuration not stated)
    -0.46, -1.07
> COc1ccc(OC)c(C2CCN(S(=O)(=O)c3csc(C(N)=O)c3)C2)c1 (configuration not stated)
    -0.29, /
> Cc1ccc(/C=C/c2onc(C)c2[N+](=O)[O-])cc1S(=O)(=O)N1CCOCC1
    -0.41, /
> c1ccc(-c2nsc(N3CCNCC3)n2)cc1
    /, 0.06
> Cc1csc2nc(CNC(=O)C3CCCCC3C(=O)O)cn12 (configuration not stated)
    0.14, 0.06
> CC(C)CCNC(=O)C1CCC(CNc2c(N3CCC(C)CC3)c(=O)c2=O)CC1 (configuration not stated)
    0.87, -0.9
> O=C(c1ccc(CS(=O)c2cccc(Cl)c2)o1)N1CCc2ccccc21 (configuration not stated)
    1.42, /
> CCOC(=O)c1ccc(N2N=C(C(=O)c3ccccc3)S(=O)(=O)c3ccc(F)cc32)cc1
    1.26, -0.71
> CCCCCC(=O)Nc1nc2nccc(C)n2n1
    1.7, -1.93
> Cn1c(=O)c2c(nc(NCc3ccc4c(c3)OCO4)n2Cc2cccc(F)c2)n(C)c1=O
    1.27, -0.86
> Nc1ccc(-c2csnn2)cc1
    /, -0.73
> CCOC(=O)C(C)n1c(=O)c(C(F)(F)F)nc2ccccc21 (configuration not stated)
    0.6, 0.44
> Cc1cccc(-c2noc(-c3ccc(C)c(Cl)c3)n2)c1
    /, -1.58
> O=C(Nc1nccs1)C1=Cc2cc(Br)ccc2OC=C1
    0.52, 0.44
> CSc1nc2ccccc2n1Cc1ccc(C)cc1
    1.37, -1.43
> CC1(C(=O)NC2CCCCC2)Cn2c(cc3occc32)C(=O)N1C1CCCC1 (configuration not stated)
    0.8, /
> CCSc1nnc(NC(=O)CSc2nc3c(c(=O)n2-c2ccc(F)cc2)SCC3)s1
    -0.55, -0.68
> COc1ccc(-c2csc3ncnc(N4CCCC4)c23)cc1
    0.66, /
> C=CCn1c(SCC(=O)Nc2cc(C)on2)nc2c([nH]c3ccccc32)c1=O
    0.48, /
> Cn1c(=O)n(C)c2cc(CNCc3ccc(C(=O)O)cc3)ccc21
    -1.54, -0.16
> CCCCN(Cc1cc2cccc(C)c2[nH]c1=O)S(=O)(=O)c1ccccc1
    1.49, -1.68
> CCc1ccc(-c2cc(C)no2)cc1S(=O)(=O)N1CCCN(Cc2ccc(F)cc2)C1
    -0.4, /
> CC1=C2CCCC2CC/C1=N\NC(N)=O (configuration not stated)
    /, -0.93
> O=S(=O)(Nc1ccc(O)c(Cl)c1)c1cccs1
    -0.56, -0.33
> Cc1cccc(C)c1Nc1c(-c2ccc(O)cc2)nc2sccn12
    -0.91, -0.39
> Cn1c(=O)c2c(-c3ccccc3)n(CCCO)cc2n(C)c1=O
    0.63, -1.43
> Cn1nc(-c2ccccc2F)c2cc(C(=O)N3CCN(C(=O)c4ccco4)CC3)sc21
    /, -1.82
> Cc1cccc(-c2noc(CCn3c(=O)[nH]c4cc5c(cc4c3=O)OCO5)n2)c1
    -0.83, /
> COC(=O)c1c(NC(=O)Cc2coc3cc(C)cc(C)c23)sc2c1CCC2
    2.69, -0.24

# Sequence of screens: HIV TAR-Tat, CDC25B-CDK2 inh
> Cc1c(C(=O)NCC2COc3ccccc3O2)oc2ccc(S(=O)(=O)N(C)C3CCCCC3)cc12 (configuration not stated)
    /, 1.19
> Cc1cc(CSCc2ccc(Cl)cc2)no1
    /, -1.87
> O=C(O)c1ccc(CSc2nc3ccc(N4C(=O)C5C6C=CC(C6)C5C4=O)cc3s2)cc1 (configuration not stated)
    /, 1.21
> Cc1ccc(CNC(=O)C2CCCN(S(=O)(=O)c3ccc4[nH]c(=O)oc4c3)C2)o1 (configuration not stated)
    0.23, /
> O=C(Cn1c(=O)c(C(F)(F)F)nc2ccccc21)N1CCc2ccccc2C1
    /, -0.02
> COCCn1c(SCC(=O)NC2CCCC2)nc2c(c1=O)SCC2
    1.76, 0.02
> CC(C)(C)Nc1nc(C(=O)O)nc(N2CCOCC2)n1
    -0.74, 1.24
> CN(C(=O)C(Cl)Cl)C1CC2C=CC1C2 (configuration not stated)
    /, 0.37
> C=CCn1c(=O)sc2cc(NC(=O)Cc3cccs3)ccc21
    0.24, /
> COc1ccccc1CCN[C@H]1CS(=O)(=O)C[C@@H]1S(=O)(=O)c1ccc(F)cc1
    0.27, -0.06
> Cc1ccc(C(=O)N(Cc2nc(-c3ccc(Cl)cc3)no2)C(C)C)c(C)c1
    /, -1.04
> CCOC(=O)Cn1cc(F)c(=O)[nH]c1=O
    2.27, -0.15
> CC1=C(C(=O)OCCc2ccccc2)C(c2ccccc2F)NC(=O)N1 (configuration not stated)
    /, 0.51
> O=C(CN1CCN(c2ccccc2)CC1)c1ccc2c(c1)CCN2
    0.9, 1.06
> CCOC(=O)C(C)Oc1ccc2oc(C)c(C(=O)OCCOC)c2c1 (configuration not stated)
    0.68, -0.84
> O=C(Cn1ncc2c3ccccc3n(Cc3ccccc3F)c2c1=O)NCc1ccco1
    /, -0.76
> CC1CCCCC1NS(=O)(=O)c1ccc2c(c1)oc(=O)n2C (configuration not stated)
    /, -1.93
> COc1ccc(Cl)cc1NC(=O)CS(=O)(=O)c1ccc2c(c1)S(=O)(=O)N=CN2
    0.58, /
> COc1ccc(NS(=O)(=O)c2ccc3c(c2)NC(=O)C(C)S3)c(OC)c1 (configuration not stated)
    2.26, /
> O=C(CCc1nc(CSc2nc3ccccc3s2)no1)Nc1ccccc1F
    0.86, /
> COc1ccccc1C1OC(=O)C[C@H]1C(=O)NN (some centres not stated)
    /, -1.39
> Cc1ccc(N2CCN(c3nc4ccccc4n4cnnc34)CC2)c(C)c1
    1.15, -1.37
> Clc1ccc(C2=Nn3c(nnc3C3CCCCC3)SC2)cc1
    0.61, /
> COc1ccc(-c2cc3ncc(C(=O)c4ccccc4O)cn3n2)cc1
    2.26, -2.73
> Cc1nnc2n1NC(c1ccc(Cl)cc1)C(C(=O)NCc1ccco1)S2 (configuration not stated)
    -0.18, -1.21
> O=C(CCC1=NS(=O)(=O)c2ccccc2N1)NC1CCCC1
    -1.38, /
> Nc1cc(-c2ccccc2)nn1S(=O)(=O)c1ccc(Br)cc1
    0.63, -0.38
> CCOc1ncc(S(=O)(=O)N2CCN(CC)CC2)cc1-c1nc2c(CC)n(CCOC)nc2c(=O)[nH]1
    /, -0.69
> CN(C)c1ccc(/C=C2\C(=O)Nc3ccccc32)cc1
    /, -2.61
> O=C(N1CCC(n2nc(-c3ccccc3)oc2=O)CC1)C1(c2ccccc2)CC1
    2.22, -1.65

# Sequence of screens: HIV TAR-Tat, CDC25B-CDK2 inh
> O=C(Nc1ccc(Cl)cc1)N1CCSc2ncccc21
    -0.66, /
> CS(=O)(=O)n1c(SCc2csc(-c3ccc(Cl)cc3)n2)nc2ccccc21
    1.15, /
> Cc1c(Br)c(-c2n[nH]c(=S)n2-c2ccc(F)cc2)nn1C
    /, -0.64
> Cc1nc2ccc(N=Nc3sc(N)nc3C)cc2s1
    /, -6.15
> Cc1cc(S(=O)(=O)Nc2cccnc2)c(C)cc1Cl
    -0.72, -0.59
> Cc1c(C(=O)OCC(C)C)[nH]c2c1C(=O)CC(c1ccco1)C2 (configuration not stated)
    -1.38, 1.12
> O=C(CC1=NS(=O)(=O)c2ccccc2N1)Nc1ccc(F)cc1F
    0.93, /
> Cn1c(SCc2nc(-c3ccc(Cl)cc3)no2)nnc1-c1ccco1
    -1.38, -0.44
> Cn1c(=O)c2c(SCC(=O)Nc3ccc4c(c3)OCCO4)nc(-c3ccco3)nc2n(C)c1=O
    /, -1.81
> CCOC(=O)C1=CNc2ccccc2S1
    0.78, -1.27
> COc1cccc2c(=O)cc(C(=O)O)[nH]c12
    0.68, -1.88
> COc1ccc(-c2cccc(NS(=O)(=O)c3cc(C)cc(C)c3)c2)nn1
    0.94, /
> CCC1(C)Cc2c(C#N)c(N)n(C)c(=S)c2CO1 (configuration not stated)
    3.88, 0.23
> Cn1c2c(c(=O)n(C)c1=O)CN(CCN1CCc3ccccc3C1)CN2
    0.82, -0.96
> O=C(Nc1ccc(F)cc1)N1CCN(c2ccc3nncn3n2)CC1
    0.66, -0.16
> CSc1cccc(NC(=O)C2CCC(=O)N2S(=O)(=O)c2ccccc2)c1 (configuration not stated)
    1.11, /
> CC1CCc2c(sc3nc(CCC(=O)N4CCC(C(N)=O)CC4)[nH]c(=O)c23)C1 (configuration not stated)
    0.74, /
> CCC1CCCCN1C(=O)C1=CC(c2cccs2)=NS(=O)(=O)N1C (configuration not stated)
    2.44, -1.15
> COc1ccc(NC(=O)C2=Cc3cc(OC)ccc3OC2)cc1
    0.77, /
> O=C(CCc1nc(-c2cccnc2)no1)Nc1nccs1
    0.12, -0.05
> O=C1C(Oc2ccccc2)C(c2ccc3c(c2)OCO3)N1C1CCCC1 (configuration not stated)
    -0.98, -0.55
> Cc1c(C(=O)N2CCCC2)oc2ccc(S(=O)(=O)N3CCCC3)cc12
    /, 0
> CC(C)Cc1ccc(S(=O)(=O)N2CCCC2c2cccs2)cc1 (configuration not stated)
    1.05, -1.13
> COC(=O)c1cc2occc2n1Cc1c(C)cc(C)cc1C
    1.61, -0.65
> O=C(c1ccc([N+](=O)[O-])o1)N1CCN(c2cccc(Cl)c2)CC1
    -0.55, -0.32
> O=C(NCCCN1CCCC1)C1CCN(c2ncnc3c2nc2n3CCCCC2)CC1
    -2.76, /
> Cn1cnc2cc(NCc3ccco3)ccc21
    0.29, 16.8*
> NS(=O)(=O)c1ccc(-n2nc(C(F)(F)F)cc2-c2cccs2)cc1
    /, -0.01
> O=C(O)CCCC(=O)N1N=C(c2ccc(Br)cc2)CC1c1nc2ccccc2[nH]1 (configuration not stated)
    1.37, /
> O=C1CCCc2c1cnc1[nH]n(-c3ccccc3)c(=O)c21
    1.92, -2.86

# Structures listed so far with an NH in an aromatic ring:
# Sequence of screens: HIV TAR-Tat, CDC25B-CDK2 inh
> C=CCn1c(SCC(=O)Nc2cc(C)on2)nc2c([nH]c3ccccc32)c1=O
    0.48, /
> CCCCN(Cc1cc2cccc(C)c2[nH]c1=O)S(=O)(=O)c1ccccc1
    1.49, -1.68
> Cc1cccc(-c2noc(CCn3c(=O)[nH]c4cc5c(cc4c3=O)OCO5)n2)c1
    -0.83, /
> Cc1ccc(CNC(=O)C2CCCN(S(=O)(=O)c3ccc4[nH]c(=O)oc4c3)C2)o1 (configuration not stated)
    0.23, /
> CCOC(=O)Cn1cc(F)c(=O)[nH]c1=O
    2.27, -0.15
> CCOc1ncc(S(=O)(=O)N2CCN(CC)CC2)cc1-c1nc2c(CC)n(CCOC)nc2c(=O)[nH]1
    /, -0.69
> Cc1c(Br)c(-c2n[nH]c(=S)n2-c2ccc(F)cc2)nn1C
    /, -0.64
> Cc1c(C(=O)OCC(C)C)[nH]c2c1C(=O)CC(c1ccco1)C2 (configuration not stated)
    -1.38, 1.12
> COc1cccc2c(=O)cc(C(=O)O)[nH]c12
    0.68, -1.88
> CC1CCc2c(sc3nc(CCC(=O)N4CCC(C(N)=O)CC4)[nH]c(=O)c23)C1 (configuration not stated)
    0.74, /
> O=C(O)CCCC(=O)N1N=C(c2ccc(Br)cc2)CC1c1nc2ccccc2[nH]1 (configuration not stated)
    1.37, /
> O=C1CCCc2c1cnc1[nH]n(-c3ccccc3)c(=O)c21
    1.92, -2.86

# Continued:
# Sequence of screens: HIV TAR-Tat, CDC25B-CDK2 inh
> O=C(Cn1nc(-c2ccc(Cl)cc2)ccc1=O)NCc1cccnc1
    /, -0.82
> CC(C)N1C=C(OC(=O)C(C)(C)C)c2ccccc2S1(=O)=O
    -0.57, -0.75
> CC1CCCN(c2nn3c(=O)c(C(=O)NCCCOC(C)C)cnc3s2)C1 (configuration not stated)
    -0.92, /
> Nc1cc(-c2ccc(Br)cc2)nn1S(=O)(=O)c1ccccc1
    0.44, -1.74
> Cn1cccc1/C(C#N)=C\c1ccc(C#N)cc1
    /, -0.8
> COc1ccc(OC)c(C2=NS(=O)(=O)N(C)C(C(=O)NC3CCCC3)=C2)c1
    3.19, -2.03
> CC(C)c1nc2sc3c(NCCN4CCOCC4)ncnc3c2c2c1CCCC2
    0.35, -0.13
> CC1CCN(c2ccc3nnc(CCC(=O)O)n3n2)CC1
    2.07, -1.13
> COc1cccc2c1oc(=O)c1c(NC(C)=O)nc3c(c12)CCCCC3
    1.54, 0.03
> O=C(Nc1c(C(=O)N2CCCC2)oc2ccccc12)c1ccc(F)cc1
    0.66, /
> Cn1c(C=Nc2ccc(OC(F)(F)F)cc2)cnc1[N+](=O)[O-]
    /, -1.4
> O=C(NCCc1ccsc1)c1cc2c(s1)-c1ccccc1OC2
    2, -1.1
> O=C1c2cccnc2C(Nc2ccc(F)cc2)N1c1ccccc1 (configuration not stated)
    2.17, /
> CC(C)OC(=O)Cn1cnc2ccccc2c1=O
    0.32, 0.11
> O=c1ccc2cc(S(=O)(=O)NCC3CCCO3)ccc2[nH]1 (configuration not stated)
    2.7, /
> COc1cc(OC)c(NC(=O)CSc2nccn2C)cc1Cl
    6.53, 1.81
> O=C(O)C1C2C=CC(O2)C1C(=O)NCc1cccc(Cl)c1 (configuration not stated)
    /, -1.21
> Cc1cc(-c2ccc(S(=O)(=O)N3CCOCC3)cc2)on1
    0.84, /
> O=C(Cn1ncc2c([nH]c3ccccc32)c1=O)N1CCC(N2CCCCC2)CC1
    0.31, /
> COc1cccc(-n2c(N)c(C#N)c3ccc([N+](=O)[O-])cc3c2=O)c1
    /, -1.16
> O=C(O)CCCC(=O)Nc1ccccc1-c1ccccc1
    /, -1.18
> COc1ccc(S(=O)(=O)Nc2cc3c(cc2N2CCCCC2)n(C)c(=O)c(=O)n3C)cc1OC
    -0.9, 1.26
> CC1=C(C(=O)OCCc2ccccc2)C(c2ccccc2)C2=C(CC(C)(C)CC2=O)N1 (configuration not stated)
    1.05, -2.16
> CC(C)Cc1c(O)nc(SCCN2CCOCC2)[nH]c1=O
    1.46, -0.99
> Cc1ccc(-c2nc3scc(CCNS(=O)(=O)c4ccc(C)cc4)n3n2)cc1
    0.41, /

# This is a random part of the collection. Share with any hit: about 0.87%.
